Vaccinia mCherry: inhibitors of vaccinia virus infection (mCherry reporter signal). Vaccinia virus mCherry reporter infection, fluorescence; about a quarter of the inactives have no number. 310,000 tested, 0.63% active. AID 720579. Potency, µM (highest dose often 36.5 µM), for inactives: top-dose activity change, negative = inhibition, usual class: inhibitors; active = well fitted inhibition curve with a large enough effect; inconclusive = small, poorly fitted or top-dose-only effect; inactive = no such curve, though single readings can be large or run the other way; tested in A549 cells; further: nearly all actives have a fitted effect of over 35% in size; inactives centre near -10
Vaccinia Venus: vaccinia inhibition (Venus reporter) | Vaccinia virus Venus reporter expression, fluorescence | Potency, µM (top dose mostly 36.5 µM), for inactives: at the top dose activity change, negative = inhibition, usual class: inhibitors | 330,000 tested, 0.46% active; active means well fitted inhibition curve with a large enough effect; inconclusive means small, poorly fitted or top-dose-only effect; inactive means no such curve, though single readings can be large or run the other way; tested in A549 cells; further: nearly all actives have a fitted effect of over 30% in size; inactives centre near -10
Numbers without * were called inactive; & = joins results of further samples; [ ] = remark or other dose. On the % scale 0 is the no-effect control and ±100 the full control effect; potency means the concentration at half of the fitted maximal effect.

Results for Cc1cc(=O)oc2cc(O)ccc12 ?
Vaccinia mCherry: -13.1%; Vaccinia Venus: -3.1%

How did COc1cc(N)c(Cl)cc1C(=O)N[C@H]1CCN(CCCOc2ccc(F)cc2)C[C@H]1OC do in these assays?
Vaccinia mCherry: -9.5%; Vaccinia Venus: -16.5%

Results for CC(C)OCc1cc(CN2CCN(c3ccccc3)CC2)c(O)c2ncccc12 ?
Vaccinia mCherry: 11.2µM*; Vaccinia Venus: inconclusive

How did CCCCOc1cc(C(=O)OCCN(CC)CC)ccc1N do in these assays?
Vaccinia mCherry: -9.8%; Vaccinia Venus: -4.6%&-13.2%

What do the screens show for `COC(=O)N/N=C/c1c[n+]([O-])c2ccccc2[n+]1[O-]`?
Vaccinia mCherry: -5.7%; Vaccinia Venus: -7.6%&-8.3%

Results for Cn1ccc2cc3c(cc21)CCN3C(=O)Nc1cccnc1 ?
Vaccinia mCherry: inactive; Vaccinia Venus: -8.0%

What do the screens show for `CC1(C)O[C@@H]2C[C@H]3[C@@H]4C[C@H](F)C5=CC(=O)C=C[C@]5(C)[C@@]4(F)[C@@H](O)C[C@]3(C)[C@]2(C(=O)CO)O1`?
Vaccinia mCherry: -10.1%; Vaccinia Venus: -17.9%

How did NC(=O)C[C@@H](N)C(=O)O do in these assays?
Vaccinia mCherry: -18.6%; Vaccinia Venus: -16.1%

What do the screens show for `CC(C)(C)NCC(O)COc1cccc2c1CC(O)C(O)C2` (stereo not given)?
Vaccinia mCherry: -10.2%&-15.4%; Vaccinia Venus: -4.8%&-9.8%

How did Cc1c(C)n(Cc2ccccc2)c2ccc(C(=O)OCCN(C)C)cc12 do in these assays?
Vaccinia mCherry: -8.1%; Vaccinia Venus: -19.8%

Results for CCc1ccccc1OC[C@@H](O)CN[C@H]1CCCc2ccccc21 ?
Vaccinia mCherry: inconclusive; Vaccinia Venus: inconclusive

Results for CN(C)C/C=C(\c1ccc(Br)cc1)c1cccnc1 ?
Vaccinia mCherry: inactive; Vaccinia Venus: -14.5%

How did CCCC(=O)O[C@]1(C(=O)COC(C)=O)CC[C@H]2[C@@H]3C[C@H](F)C4=CC(=O)C=C[C@]4(C)[C@@]3(F)[C@@H](O)C[C@@]21C do in these assays?
Vaccinia mCherry: -10.6%; Vaccinia Venus: -19.8%

What do the screens show for `O=C(Nc1cc(-c2ccccc2)nn1-c1ccccc1F)c1ccc([N+](=O)[O-])cc1`?
Vaccinia mCherry: inconclusive; Vaccinia Venus: -12.1%

Results for C[C@@H]1C[C@H]2[C@@H]3CCC4=CC(=O)C=C[C@]4(C)[C@@]3(Cl)[C@@H](O)C[C@]2(C)[C@@]1(OC(=O)c1ccco1)C(=O)CCl ?
Vaccinia mCherry: inconclusive; Vaccinia Venus: inconclusive

What do the screens show for `CC(=O)Oc1ccc2c(C)cc(=O)oc2c1`?
Vaccinia Venus: -7.8%

Results for Nc1ncnc2c1c(-c1ccc(Oc3ccccc3)cc1)cn2C1CCCC1 ?
Vaccinia mCherry: -9.6%; Vaccinia Venus: inconclusive

What do the screens show for `O=C(O)Cc1sc(-c2ccccc2)nc1-c1ccc(Cl)cc1`?
Vaccinia mCherry: -7.3%; Vaccinia Venus: -25.6%

What do the screens show for `CC(=O)OCC(=O)[C@@]1(O)CC[C@H]2[C@@H]3CCC4=CC(=O)C=C[C@]4(C)[C@@]3(F)[C@@H](O)C[C@@]21C`?
Vaccinia mCherry: inactive; Vaccinia Venus: -10.5%

Results for CC1O[C@@H](OCC2O[C@@H](Oc3cc(O)c4c(c3)OC(c3ccc(O)cc3)CC4=O)[C@H](O)[C@@H](O)[C@@H]2O)[C@H](O)[C@H](O)[C@H]1O (stereo not given in full) ?
Vaccinia mCherry: -14.0%; Vaccinia Venus: -26.8%

Results for CCOC(=O)c1ccc(NC(=O)c2cc(=O)c3ccc(C)c(C)c3o2)cc1 ?
Vaccinia mCherry: -10.4%; Vaccinia Venus: -13.5%

Results for CCCCCCCCCCCCCCC[C@@H](O)[C@@H](N)CO ?
Vaccinia mCherry: -7.4%; Vaccinia Venus: -6.2%

Results for CC[C@]12CCCN3CCc4c(n(c5ccccc45)[C@](O)(C(=O)OC)C1)[C@@H]32 ?
Vaccinia mCherry: -8.0%; Vaccinia Venus: -13.2%

What do the screens show for `CCn1cc(C(=O)O)c(=O)c2cc(F)c(N3CCNC(C)C3)c(F)c21` (stereo not given)?
Vaccinia mCherry: -6.6%; Vaccinia Venus: -3.3%

What do the screens show for `COc1cc(C2Oc3cc(C4Oc5cc(O)cc(O)c5C(=O)C4O)ccc3OC2CO)ccc1O` (stereo not given)?
Vaccinia mCherry: -7.0%&-17.1%; Vaccinia Venus: -15.9%&-9.9%

Results for CC(C)(C)NCC(O)COc1cccc2c1C[C@H](O)[C@H](O)C2 (stereo not given in full) ?
Vaccinia mCherry: -14.8%; Vaccinia Venus: -10.7%

Results for O=C1c2c(O)ccc(O)c2C(=O)c2c(NCCNCCO)ccc(NCCNCCO)c21 ?
Vaccinia mCherry: inconclusive; Vaccinia Venus: 10µM*

Results for CCCCN(CCCC)CCCOC(=O)c1ccc(N)cc1 ?
Vaccinia mCherry: -4.4%&-23.0%; Vaccinia Venus: inconclusive

What do the screens show for `CCC(C(=O)Nc1ccccc1N1CCCC1)c1ccccc1` (stereo not given)?
Vaccinia mCherry: inactive; Vaccinia Venus: -14.3%

Results for CCOc1ccc2nc(N3CCC(C(=O)Nc4ccccc4CC)CC3)sc2c1 ?
Vaccinia mCherry: inconclusive; Vaccinia Venus: inconclusive

What do the screens show for `O=C(O)Cc1cn(-c2ccccc2)nc1-c1ccc(Cl)cc1`?
Vaccinia mCherry: -5.2%; Vaccinia Venus: -1.6%

Results for CCCOc1ccc(C(=O)OCCN(CC)CC)cc1N ?
Vaccinia mCherry: inactive; Vaccinia Venus: -8.3%

What do the screens show for `CN(C)S(=O)(=O)n1cc(/C=C(\NC(=O)c2ccccc2)C(=O)NCCCn2ccnc2)c2ccccc21`?
Vaccinia mCherry: 3.6%; Vaccinia Venus: -1.3%

What do the screens show for `CC(Cc1cccc(C(F)(F)F)c1)NCCOC(=O)c1ccccc1` (stereo not given)?
Vaccinia mCherry: inconclusive; Vaccinia Venus: inconclusive

Results for Cc1cccc(Cc2c(C)nc3c(-c4ccccc4)c(C)[nH]n3c2=O)c1 ?
Vaccinia mCherry: inconclusive; Vaccinia Venus: inconclusive

Results for Cc1ccccc1OCC(O)CO (stereo not given) ?
Vaccinia mCherry: -21.9%; Vaccinia Venus: -13.5%

How did CCCC1(c2ccccc2)NC(=O)N(CC(=O)N(C)Cc2c(F)cccc2Cl)C1=O (stereo not given) do in these assays?
Vaccinia mCherry: -1.9%; Vaccinia Venus: -9.5%

What do the screens show for `COc1ccc(C(=O)c2ccccc2)c(O)c1`?
Vaccinia mCherry: -16.0%; Vaccinia Venus: -7.2%

Results for CN(C)CC/C=C1/c2ccccc2COc2ccc(CC(=O)O)cc21 ?
Vaccinia mCherry: -15.3%; Vaccinia Venus: -9.9%

Results for Cc1ccc(C)c(Nc2nc3nonc3nc2Nc2cccc(C)c2C)c1 ?
Vaccinia mCherry: -14.2%; Vaccinia Venus: inconclusive

What do the screens show for `Cc1c(Cl)cccc1NC(=O)Cn1cc(C(=O)C2CCCCC2)c2ccccc21`?
Vaccinia mCherry: -26.1%[7.34 µM]; Vaccinia Venus: -26.5%[7.34 µM]

Results for CCCC(=O)O[C@]1(C(=O)CCl)[C@@H](C)C[C@H]2[C@@H]3CCC4=CC(=O)C=C[C@]4(C)[C@@]3(F)C(=O)C[C@@]21C ?
Vaccinia mCherry: -0.2%; Vaccinia Venus: -23.4%

What do the screens show for `CCCOc1ccc2nc(NC(=O)OC)[nH]c2c1`?
Vaccinia mCherry: -28.2%; Vaccinia Venus: -27.3%

How did CC1CCC2(C(=O)O)CCC3(C)C(=CCC4C3(C)CCC3[C@@]4(C)CC(O)C(O)[C@@]3(C)CO)C2C1C (stereo not given in full) do in these assays?
Vaccinia mCherry: -1.0%; Vaccinia Venus: 1.5%

What do the screens show for `Cc1scc2c1N(C(=O)CN1CCN(C)CC1)c1ccccc1NC2=O`?
Vaccinia mCherry: -12.0%&-0.7%; Vaccinia Venus: -3.4%&-14.9%

No new results follow: an excerpt of the list.
Results for CCOC(=O)c1ccc(NC(=O)c2cc(=O)c3ccc(C)c(C)c3o2)cc1 ?
Vaccinia mCherry: -10.4%; Vaccinia Venus: -13.5%

Results for CCCCCCCCCCCCCCC[C@@H](O)[C@@H](N)CO ?
Vaccinia mCherry: -7.4%; Vaccinia Venus: -6.2%

Results for CC[C@]12CCCN3CCc4c(n(c5ccccc45)[C@](O)(C(=O)OC)C1)[C@@H]32 ?
Vaccinia mCherry: -8.0%; Vaccinia Venus: -13.2%

What do the screens show for `CCn1cc(C(=O)O)c(=O)c2cc(F)c(N3CCNC(C)C3)c(F)c21` (stereo not given)?
Vaccinia mCherry: -6.6%; Vaccinia Venus: -3.3%

What do the screens show for `COc1cc(C2Oc3cc(C4Oc5cc(O)cc(O)c5C(=O)C4O)ccc3OC2CO)ccc1O` (stereo not given)?
Vaccinia mCherry: -7.0%&-17.1%; Vaccinia Venus: -15.9%&-9.9%

Results for CC(C)(C)NCC(O)COc1cccc2c1C[C@H](O)[C@H](O)C2 (stereo not given in full) ?
Vaccinia mCherry: -14.8%; Vaccinia Venus: -10.7%

Results for O=C1c2c(O)ccc(O)c2C(=O)c2c(NCCNCCO)ccc(NCCNCCO)c21 ?
Vaccinia mCherry: inconclusive; Vaccinia Venus: 10µM*

Results for CCCCN(CCCC)CCCOC(=O)c1ccc(N)cc1 ?
Vaccinia mCherry: -4.4%&-23.0%; Vaccinia Venus: inconclusive

What do the screens show for `CCC(C(=O)Nc1ccccc1N1CCCC1)c1ccccc1` (stereo not given)?
Vaccinia mCherry: inactive; Vaccinia Venus: -14.3%

Results for CCOc1ccc2nc(N3CCC(C(=O)Nc4ccccc4CC)CC3)sc2c1 ?
Vaccinia mCherry: inconclusive; Vaccinia Venus: inconclusive

What do the screens show for `O=C(O)Cc1cn(-c2ccccc2)nc1-c1ccc(Cl)cc1`?
Vaccinia mCherry: -5.2%; Vaccinia Venus: -1.6%

Results for CCCOc1ccc(C(=O)OCCN(CC)CC)cc1N ?
Vaccinia mCherry: inactive; Vaccinia Venus: -8.3%

What do the screens show for `CN(C)S(=O)(=O)n1cc(/C=C(\NC(=O)c2ccccc2)C(=O)NCCCn2ccnc2)c2ccccc21`?
Vaccinia mCherry: 3.6%; Vaccinia Venus: -1.3%

What do the screens show for `CC(Cc1cccc(C(F)(F)F)c1)NCCOC(=O)c1ccccc1` (stereo not given)?
Vaccinia mCherry: inconclusive; Vaccinia Venus: inconclusive

Results for Cc1cccc(Cc2c(C)nc3c(-c4ccccc4)c(C)[nH]n3c2=O)c1 ?
Vaccinia mCherry: inconclusive; Vaccinia Venus: inconclusive

Next part.
Results for N=c1nc(N2CCCCC2)cc(N)n1O ?
Vaccinia mCherry: -18.6%; Vaccinia Venus: -11.5%

How did O=[N+]([O-])c1cncn1CCN1CCOCC1 do in these assays?
Vaccinia mCherry: -12.0%; Vaccinia Venus: -2.4%

What do the screens show for `O=C(NC1CCN(CCc2c[nH]c3ccccc23)CC1)c1ccccc1`?
Vaccinia mCherry: inactive; Vaccinia Venus: -17.9%

What do the screens show for `CCc1cccc(CC)c1NC(=O)CN(CC(=O)O)CC(=O)O`?
Vaccinia mCherry: inactive; Vaccinia Venus: -12.4%

Results for O=C(CCN1CCN(CCO)CC1)N1c2ccccc2Sc2ccc(C(F)(F)F)cc21 ?
Vaccinia mCherry: -8.2%; Vaccinia Venus: -13.7%

Results for O=C(c1ccccn1)N(Cc1cccs1)C1(C(=O)NC2CCCCC2)CCCCC1 ?
Vaccinia mCherry: -4.4%; Vaccinia Venus: -7.6%

Results for CCOC(=O)c1sc(NC(=O)c2c(-c3ccccc3)c(-c3ccccc3)nn(C)c2=O)nc1C ?
Vaccinia mCherry: 7.8%; Vaccinia Venus: -6.1%

How did Nc1c2ccccc2nc2ccccc12 do in these assays?
Vaccinia mCherry: inconclusive; Vaccinia Venus: 10µM*

Results for CCCCCCCCCCCCCCCC(O)C(N)CO (stereo not given) ?
Vaccinia mCherry: inactive; Vaccinia Venus: -10.0%

Results for CCN(CCCCOC(=O)c1ccc(OC)c(OC)c1)C(C)Cc1ccc(OC)cc1 (stereo not given) ?
Vaccinia mCherry: -13.0%; Vaccinia Venus: -9.9%&-2.4%

Results for O=C(O)c1cc(=O)c2ccccc2o1 ?
Vaccinia mCherry: -0.1%; Vaccinia Venus: -15.9%&-11.7%

How did COc1ccc(-c2cc(C(F)F)nn2-c2ccc(S(N)(=O)=O)cc2)cc1F do in these assays?
Vaccinia mCherry: -8.9%; Vaccinia Venus: -1.9%

Results for Cc1nc2c3ccccc3nc(NNC(=O)CCC(=O)N3CCN(c4ccccc4F)CC3)n2n1 ?
Vaccinia mCherry: -5.4%; Vaccinia Venus: -4.7%

What do the screens show for `CC(C)NNC(=O)c1ccncc1`?
Vaccinia mCherry: -11.5%; Vaccinia Venus: -7.6%&-7.2%

What do the screens show for `CC1(C)[C@@H](O[C@H]2O[C@H](C(=O)O)[C@@H](O)[C@H](O)[C@H]2O[C@@H]2O[C@H](C(=O)O)[C@@H](O)[C@H](O)[C@H]2O)CC[C@]2(C)[C@H]3C(=O)C=C4[C@@H]5C[C@@](C)(C(=O)O)CC[C@]5(C)CC[C@@]4(C)[C@]3(C)CC[C@@H]12`?
Vaccinia mCherry: 18.0%; Vaccinia Venus: 19.3%

Screens: PubChem BioAssay, National Center for Advancing Translational Sciences (NCATS)

These rows are one share of the data (hit frequency here may not be typical).
